# T cruzi inh: T. cruzi replication inhibition; inhibition, % (no concentration beside the values); 300,000 compounds, 1.4% hits; T. cruzi beta-gal in NIH3T3, luminescence, 90 h; AID 1885;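 active = mean inhibition across valid replicates above about 55%, limit read from the data; inconclusive = mean below that limit but half or more replicates reach it; inactive = mean below it, under half of replicates reach it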;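 note: signal also drops with host cell toxicity which is not excluded here; 0% = plate median of DMSO wells and 100% = zero luminescence signal; higher percent means less beta-gal luminescence so fewer parasites; stock transfer was 50 nL into about 50 µL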
# ALR H2O2 inh: inhibitors of human sulfhydryl oxidase ALR; P55789; purified ALR, DTT oxidation, H2O2 HRP-luminol luminescence; inhibition, % (test concentration not listed); 290,000 compounds, 3.8% hits; AID 485317;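 active = mean and each replicate at 75% or more; inconclusive = only one of the two met; inactive = neither met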;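 note: stock transfer was 7.5 nL into about 7.5 µL; 0% = neutral wells and 100% = wells with inactivated enzyme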
# LANA-H2A inh: blocks KSHV LANA binding to histone H2A/H2B; Q9QR71; inhibition, % (no concentration beside the values); cell-free LANA-H2A/H2B peptide, fluorescence polarization; AID 2629; 320,000 compounds, 0.6% hits; in the data active = inhibition mostly above about 10%, no sharp cut-off; inactive = mostly below about 6.7%;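 note: stock transfer was 7.5 nL into about 10 µL; 0% = median of vehicle wells and 100% = median of positive control wells; one replicate is shown; the record names a cut of 25% in any replicate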
# Target sequence (Q9QR71 whole entry, looked up): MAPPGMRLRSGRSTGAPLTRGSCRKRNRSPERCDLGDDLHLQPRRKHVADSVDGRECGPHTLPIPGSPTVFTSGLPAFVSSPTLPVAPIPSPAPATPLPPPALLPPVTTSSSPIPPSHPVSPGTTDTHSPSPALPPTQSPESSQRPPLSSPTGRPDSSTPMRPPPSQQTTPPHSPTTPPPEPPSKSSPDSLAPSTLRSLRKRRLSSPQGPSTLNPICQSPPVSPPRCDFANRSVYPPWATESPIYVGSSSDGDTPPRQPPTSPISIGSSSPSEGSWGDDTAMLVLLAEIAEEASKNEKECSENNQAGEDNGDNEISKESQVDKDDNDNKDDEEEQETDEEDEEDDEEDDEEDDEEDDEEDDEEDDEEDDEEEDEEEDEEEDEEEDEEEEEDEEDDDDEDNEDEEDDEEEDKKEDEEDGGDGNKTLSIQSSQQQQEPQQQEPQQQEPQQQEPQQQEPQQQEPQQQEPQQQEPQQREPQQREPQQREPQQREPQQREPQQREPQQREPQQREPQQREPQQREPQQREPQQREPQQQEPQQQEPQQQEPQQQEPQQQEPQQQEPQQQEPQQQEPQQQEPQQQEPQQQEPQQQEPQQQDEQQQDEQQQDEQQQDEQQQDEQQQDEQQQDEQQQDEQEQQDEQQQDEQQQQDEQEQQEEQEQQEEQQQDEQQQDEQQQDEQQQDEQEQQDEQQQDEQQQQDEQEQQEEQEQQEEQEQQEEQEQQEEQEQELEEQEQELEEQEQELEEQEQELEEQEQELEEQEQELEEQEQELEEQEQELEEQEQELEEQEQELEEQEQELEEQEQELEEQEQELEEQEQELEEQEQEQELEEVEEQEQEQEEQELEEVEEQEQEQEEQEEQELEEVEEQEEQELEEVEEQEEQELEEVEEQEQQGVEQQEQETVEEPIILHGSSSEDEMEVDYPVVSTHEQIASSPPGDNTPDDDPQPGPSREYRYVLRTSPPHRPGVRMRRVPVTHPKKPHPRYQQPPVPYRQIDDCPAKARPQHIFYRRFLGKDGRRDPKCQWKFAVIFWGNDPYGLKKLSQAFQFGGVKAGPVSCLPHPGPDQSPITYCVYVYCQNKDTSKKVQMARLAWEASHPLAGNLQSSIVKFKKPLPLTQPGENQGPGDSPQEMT
# Bfl-1 A1 inh: inhibitors of the anti-apoptotic protein A1, read as caspase activation. MEF A1-2A-BIM cells, Caspase-Glo 3/7 luminescence, 3 h; percent of clofoctol response, vehicle zero. caspase activation, % (concentration not given with the values). 330,000 compounds, 0.066% hits. AID 2462;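 active = over half of replicate activation scores above 10%, or exactly half above 10 with the replicate mean above 10; inconclusive = replicate mean below 10 yet half the replicates above 10; inactive = over half of replicates below 10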;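 note: wells of about 30 µL received 50 nL stock; many hits fall short of the cut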
# Beta apoptosis: blocks beta cell apoptosis; INS-1E cytokine-induced death, ATP luminescence, 48 h; percent of positive-control rescue, neutral wells zero; AID 435005; protection from apoptosis, % (concentration not given with the values); 300,000 compounds, 0.8% hits;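 active = all replicates at 75% or more, or half of them and the mean; inconclusive = half reach 75% but not the mean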;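 note: 0% = cytokine-treated negative control wells and 100% = positive control rescue; higher means more ATP so stronger rescue from cytokine killing; wells of about 40 µL received 100 nL stock; the first replicate is given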
# rRNA inh HTS: selective bacterial rRNA inhibition in E. coli; E. coli WT GFP vs humanized-ribosome RFP mutants, fluorescence, 24 h; active compounds read low; DMSO median 0, no signal -100; GFP signal change (wild-type ribosome), % (concentration not given with the values); 350,000 compounds, 1.6% hits; AID 720706;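 active = significant combined selectivity score with lowered wild-type GFP, culture density cut under 30%, mutant RFP and density less affected; inactive = any of these conditions unmet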; note: one replicate is shown; some compounds called inactive have numbers as strong as hits
# Beta2AR agonist: human beta-2 adrenergic receptor agonism by FAP. P07550. Am2.2-beta2AR cells, FAP receptor internalization, flow cytometry; reference of the scale not given here. response, % (concentration not given with the values). 340,000 compounds, 0.43% hits. AID 504454;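 active = response above a set limit, near 3 SD of response in nonfluorescent compounds, cut at about 42% in these data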;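 note: stock transfer was 100 nL into about 11 µL; a reference agonist was the positive control; negative values mostly stem from fluorescent compounds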
# Calb FLC: affects C. albicans growth with fluconazole. AID 1979. growth inhibition, % (no concentration beside the values). C. albicans CaCi-2 (fluconazole-resistant clinical isolate) + fluconazole, Alamar Blue growth, 48 h. 300,000 compounds, 0.57% hits;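 active = most replicates above 75%; inconclusive = exactly half above 75%; inactive = most below 75%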;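 note: all wells also contain fluconazole at 8 µg/ml as a sub-toxic cotreatment; 0% = median of DMSO wells and 100% = median of geldanamycin control wells; wells of about 8 µL received 7.5 nL stock; the first replicate is given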
# rRNA inh HTS OD600: second read-out of rRNA inh HTS, no call of its own (marks repeat the call); OD600 change, %; measured here: OD600 growth;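 optical density of the mix in the first replicate; 0 = DMSO median and -100 = no signal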
# rRNA inh HTS RFP: further read-out of rRNA inh HTS, marked with its call; RFP signal change, %; measured here: RFP humanized mutant strains;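 first replicate; 0 = DMSO median and -100 = no signal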
# The depositor's hits bear a star; u = inconclusive; x = not tested or not shown; & = joins results of further samples. Only part of the results is shown, so the mix of outcomes need not match the whole.
SMILES,T cruzi inh,ALR H2O2 inh,LANA-H2A inh,Bfl-1 A1 inh,Beta apoptosis,rRNA inh HTS,rRNA inh HTS OD600,rRNA inh HTS RFP,Beta2AR agonist,Calb FLC
CC12CCC(C/C1=N\OC(=O)c1c(F)cccc1F)C2(C)C (configuration not stated),-2,-3,3.4,0.0,-1,15,-1,2.6,0,2
CSc1nc(-c2ccccc2)[nH]c(=S)c1C(C)=O,-11,0,-0.4,-0.4,1,x,x,x,-4,-14
CCOC(=O)c1ccc(N=c2sc(C(=O)OC)cc(=O)n2Cc2ccco2)cc1,42,11,-1.3,-0.7,13,3,5,0.4,24,-7
COc1ccc(-n2c(Cc3cc(=O)[nH]c(=O)[nH]3)nnc2SCC(=O)Nc2cc(C(F)(F)F)ccc2Cl)cc1,1,0,-2.0,0.4,1,5,3,3.8,-4,6
Cc1ccc(S(=O)(=O)N2CCOCC2)cc1C(=O)Nc1ccccc1F,7,-2,5.0,0.1,2,12,10,2.6,-10,x
COc1ccc(-c2nn(-c3ccccc3)cc2/C=N/Nc2ccc(Cl)c(C(=O)O)c2)cc1OC,11,12,1.3,-0.1,2,12,1,-5.8,-13,13
CSc1nc2ccc(NS(=O)(=O)c3ccc(Br)s3)cc2s1,-21,x,2.3,-0.1,0,-44*,-26*,-4.7*,-2,20
Cc1ccc(/C=N/NC(=O)C(C)Oc2cccc3ccccc23)o1 (configuration not stated),-8,-26,1.5,-0.9,-8,10,-3,1.1,9,1
Cc1ccc(N(CC(O)CN2C(=O)NC(C)(C)C2=O)S(=O)(=O)c2ccc(C)cc2)cc1 (configuration not stated),-9,x,-3.3,0.6,0,6,3,-1.7,-12,-3
NCCCC[C@H]1CN=C(N)N1CCC12CC3CC(CC(C3)C1)C2,-4,4,1.0,1.0,-5,9,8,-4.0,-4,-17
Cc1cc2nnc(SCC(=O)N3CCCCCC3)n2c(N)n1,-14,-36,3.0,0.8,-2,13,20,0.5,-21,7
O=C(OCCN1C(=O)c2ccccc2C1=O)Oc1ccccc1,-20,-10,-9.2,-0.1,x,6,0,3.1,0,4
Cc1[nH]n(-c2ccc(Br)cc2)c(=O)c1C=Nc1ccc(S(=O)(=O)Nc2nccs2)cc1,-10,1,-2.4,-5.7,5,x,x,x,21,-8
CC(=O)NCC(=O)N(Cc1ccco1)C1(C(=O)NC2CCCC2)CCCCC1,2,x,-6.5,0.4,3,13,4,0.3,1,3
Cc1ccc(OCC(=O)NNC(=S)NC(=O)C2CCCCC2)c(C)c1,10,-4,4.3,1.1,-2,x,x,x,5,-6
Cc1ccc(NC(=O)CSc2n[nH]c(=O)n2C2CC2)cc1S(=O)(=O)N1CCOCC1,-11,-7,-2.2,0.5,-12,-52,-76,-31,-3,-46
CCC/C(O)=C1\C(=O)CC(C)(C)CC1=Nc1ccccc1O,-11,87*,-0.4,0.9,x,-16,-13,0.2,1,15
COC(=O)c1c(C(=O)OC)c(-c2cccc(Cl)c2)n2c1CS(=O)(=O)C2,4,0,1.7,-0.3,-2,3,-7,-1.2,-1,4
COc1ccc(N(C(=O)c2ccco2)C(C(=O)NC2CCCC2)c2ccncc2)cc1 (configuration not stated),1,-5,-3.1,0.2,-4,2,-2,0.1,-4,0
O=C(OCc1nnc(-c2ccccc2)o1)c1ccc2c(c1)OCO2,-11,-5,-12,0.6,-3,x,x,x,3,1
CCCCSc1nnc(-c2cc(Br)ccc2N)c(=O)[nH]1,12,16,1.1,-0.7,0,x,x,x,0,0
N#C/C(=C\c1ccc(F)c(Br)c1)C(=O)NC1CC1,-7,1,-0.2,0.4,-2,5,-6,-0.6,10,4
Cc1cc(C)n2[nH]c(=O)c(N=Nc3cccc(Cl)c3)c2n1,-16,2,2.9,1.4,2,x,x,x,6,-4
Cc1c(C)c2ccc(O[C@@H]3O[C@H](CO)[C@H](O)[C@H](O)[C@H]3O)cc2oc1=O,-8,0,3.3,-0.5,-2,6,8,-2.1,-2,4
CC1(C)Cc2cccc(Oc3ccc(S(=O)(=O)N4CCCC4)cn3)c2O1,1,x,6.6,-0.1,5,-9,-18,0.4,1,4
SMILES,T cruzi inh,ALR H2O2 inh,LANA-H2A inh,Bfl-1 A1 inh,Beta apoptosis,rRNA inh HTS,rRNA inh HTS OD600,rRNA inh HTS RFP,Beta2AR agonist,Calb FLC
CCOc1cc(/C=N/NC(=O)CN2CCCCC2)ccc1OCc1ccccc1,-30,40,-3.6,-0.7,-8,x,x,x,16,1
O=C(NCC(c1ccco1)N1CCCC1)c1ccccc1F (configuration not stated),8,3,7.4,-0.1,-4,3,10,-2.0,10,-4
COc1ccc(-c2cc(C(=O)N/N=C/c3sccc3C)c3ccccc3n2)c(OC)c1,-20,-11,2.5,0.0,11,x,x,x,-4,6
Cc1ccccc1NC(=S)N(Cc1cccnc1)Cc1ccco1,32,-4,-2.0,-0.1,-5,-1,4,-5.2,-8,17
C[C@H](CO)N1C[C@H](C)[C@@H](CN(C)Cc2ccc(-c3ccccc3)cc2)Oc2c(NC(=O)Nc3ccc(C(F)(F)F)cc3)cccc2C1=O,x,3,2.7,-1.3,-6,0&-10,7&2,0.4&-6.3,-6,x
O=C(NC(=S)N1CCc2ccccc21)c1ccccc1,-17,19,4.0,-0.8,-9,x,x,x,1,2
COc1ccc(/C=N/n2cnnc2)cc1COc1ccccn1,-13,-20,-8.1,0.5,-8,x,x,x,-9,37
C=CCSc1nc2ccsc2c(=O)n1-c1ccccc1,23,-2,2.0,0.6,-3,8,3,-5.2,-1,-5
O=S(=O)(c1ccc2oc3ccccc3c2c1)N1CCCC1,4,x,-2.7,-0.2,1,x,x,x,-11,-7
COc1ccc(CC(CC(=O)O)C(=O)Nc2ccccc2)cc1 (configuration not stated),-11,-3,-1.1,0.0,0,x,x,x,-7,-4
CCCCc1nc(SCCOC)c2c(=O)n(C)c(=O)n(C)c2n1,43,-21,-1.2,-1.1,12,-28,-35,-6.7,11,-29
CCNc1nc(NC(C)(C)C)nc(N(C#N)CC)n1,-16,13,0.1,0.4,-2,x,x,x,-5,-9
CCn1cc(C(=O)O)c(=O)c2cc(F)c(N3CCN(C(=S)NC(=O)c4ccccc4Br)CC3)cc21,-1,x,3.5,-0.2,-8,-61,-79,-22,1,-4
CC(Oc1ccc(-c2ccccc2)c(F)c1)c1ccn(S(=O)(=O)c2ccc(F)cc2)n1 (configuration not stated),12,-11,-1.0,0.0,10,x,x,x,9,31
CC1CCCC(NC(=O)CCNC(=O)c2ccc([N+](=O)[O-])cc2)C1C (configuration not stated),2,-4,-2.6,-0.8,0,3,4,-0.4,1,2
CCOC(=O)c1ccc(Nc2nc(=O)c3cccnc3s2)cc1,-2,-5,-18,-2.1,-2,x,x,x,-6,13
CC(=O)Nc1cc(C(=O)N2CCc3ccccc3C2)ccc1Sc1ccc(Cl)cc1,8,-4,-0.7,-0.2,1,-34,-19,12,-1,-3
Cc1c(N)cccc1-c1nc2ccccc2[nH]1,-10,-5,2.1,-3.8,1,x,x,x,2,-29
CCN(C[C@H]1N[C@@](C)(C(=O)OC)[C@H]2C(=O)N(C)C(=O)[C@@H]12)C(=O)Nc1ccc(F)cc1,x,x,-0.3,0.2,-4,12,9,-0.7,9,x
CCOc1ccc(NS(=O)(=O)c2ccc(C(=O)NCC(c3ccco3)N(C)C)cc2)cc1 (configuration not stated),6,-3,4.7,1.6,6,-3,-6,4.2,-1,2
CC(NC(=O)c1csc2ccccc12)C1CCCO1 (configuration not stated),-23,-6,2.1,0.0,-3,x,x,x,15,-25
CCC/C=C(\CCC)C(NC(=O)Cc1ccccc1)c1ccc(C(=O)OC)cc1 (configuration not stated),20,-8,4.4,-0.5,5,x,x,x,-3,9
FC(F)(F)c1cccc(NC(=S)N2CCCC2)c1,-17,x,-2.8,0.5,x,x,x,x,0,-6
O=C(Cc1cccs1)NCCSc1c(-c2ccc(Cl)cc2)[nH]c2ccccc12,9,-22,2.0,0.9,37,-27,-48,-5.7,15,-6
O=C(CSc1ccccc1C(=O)O)NC1CCCCCC1,-17,-8,-2.8,0.7,-4,22,0,0.6,1,-3
SMILES,T cruzi inh,ALR H2O2 inh,LANA-H2A inh,Bfl-1 A1 inh,Beta apoptosis,rRNA inh HTS,rRNA inh HTS OD600,rRNA inh HTS RFP,Beta2AR agonist,Calb FLC
Cc1ccc(C)c(Cn2c(CN(C)Cc3ccccc3)nc3c2c(=O)n(C)c(=O)n3C)c1,15,x,-1.7,0.1,5,-13,-69,-4.4,5,-3
CN(CC1CCCN(CCc2ccc(F)cc2)C1)C(=O)CCC(F)(F)F (configuration not stated),40,x,-0.7,0.0,2,15,14,2.2,-9,-9
Cc1ccc(S(=O)(=O)N2CCN(C(=O)CSc3nnc(-c4ccco4)o3)CC2)cc1,-10,-13,4.1,-0.1,6,x,x,x,-7,-1
Cc1ccc(SCCNC(=S)Nc2ccc(C)cc2C)cc1,58*,19,-0.1,0.2,-4,-28,-52,-3.3,2,u
CN(C)C(CNC(=O)c1cc(S(=O)(=O)N(C)Cc2ccccc2)ccc1Cl)c1ccco1 (configuration not stated),5,-1,-0.1,-0.3,-2,-1,-5,-1.0,-4,-10
COc1ccc(/C=C/c2nc(S(=O)(=O)c3ccccc3)c(N(C)C)o2)cc1OC,6,10,7.0,1.1,-13,0,13,3.4,13,-3
CCNC(=O)Nc1ccc(OC)cc1OC,-22,-22,5.6,1.2,0,24,13,0.4,-7,-11
O=C(O)CN1C(=O)/C(=C2\SC(=S)N(C(Cc3ccccc3)C(=O)O)C2=O)c2ccccc21 (configuration not stated),-16,-7,5.3,2.5,2,2,2,0.1,-14,-8
COC(=O)c1cn(C(=O)c2cc(C)cc(C)c2)c2ccccc12,-6,1,0.2,-0.1,-3,11,8,-0.9,1,-1
OC(CN1CCN(c2ccccc2)CC1)c1c[nH]c2ccccc12 (configuration not stated),-15,68,2.2,1.4,-5,x,x,x,1,22
CCOC(=O)/C=C/C(=O)Nc1ccccc1C(=O)NC1CCCCC1,6,7,2.2,-0.2,-8,0,0,1.5,1,-13
Cc1cc(Br)ccc1NC(=S)Nc1cccc([N+](=O)[O-])c1,22,3,1.5,0.4,0,-11,-4,3.7,3,-28
Oc1ccc(N=Nc2ccc3ccccc3c2)cc1,-21,23,0.1,-7.4,2,-52,-75,-22,-16,-11
CC1CC(C)CN(S(=O)(=O)c2cccc(C(=O)N3C(=O)c4cccc(N)c4C3=O)c2)C1 (configuration not stated),18,-1,-1.0,-0.4,-2,-7,4,12,3,-4
CCOc1cc(CN2CCc3c([nH]c4ccccc34)C2)ccc1OC,10,28,-5.1,0.4,0,3,-1,-0.2,-4,12
OC(CNCc1cccc(Br)c1)c1ccccc1 (configuration not stated),4,-9,3.5,-0.3,-3,9,-4,-2.0,-2,-16
